# Assay outcomes (PubChem BioAssay)
# D2 potentiator – human D2 receptor positive allosteric modulation; 360,000 compounds, 0.23% hits; DiscoveRx D2 beta-arrestin cells, luminescence, 90 min; 100% = 57 uM dopamine signal; AID 624464; P14416; potentiation, % (test concentration not listed); active = potentiation of 50% or more; inconclusive = 30% to 50%; inactive = 30% or less;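 also: compound concentration not given in the record; tested on top of an EC20 dose of dopamine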
# Target sequence (P14416 whole entry, looked up): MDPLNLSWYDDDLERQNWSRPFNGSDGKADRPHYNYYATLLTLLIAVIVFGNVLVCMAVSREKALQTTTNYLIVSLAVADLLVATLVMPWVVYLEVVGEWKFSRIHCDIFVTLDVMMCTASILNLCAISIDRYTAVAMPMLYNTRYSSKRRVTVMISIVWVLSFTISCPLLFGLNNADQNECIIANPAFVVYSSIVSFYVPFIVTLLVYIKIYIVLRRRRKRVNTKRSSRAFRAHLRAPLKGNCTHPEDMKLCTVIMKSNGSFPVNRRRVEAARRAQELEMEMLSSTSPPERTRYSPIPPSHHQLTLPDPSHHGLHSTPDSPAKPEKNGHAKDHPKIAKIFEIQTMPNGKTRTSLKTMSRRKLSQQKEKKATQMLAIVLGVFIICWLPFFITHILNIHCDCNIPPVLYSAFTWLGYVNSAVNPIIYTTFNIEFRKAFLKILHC
#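 PathHunter D2 cells, attached overnight at 37 deg C, received compound in DMSO plus dopamine at EC20 (50 nM final) for 90 min at 37 deg C. Beta-arrestin recruitment was read as luminescence after 1 h with detection reagent at ambient temperature.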
# CtBP-E1A inh – blocks the CtBP interaction with E1A. AlphaScreen GST-E1A/His-CtBP binding, 1536-well; stronger effect = lower value; control for the full effect not named in the record. activity change, % (concentration not given with the values). 340,000 compounds, 0.49% hits; in the data active means activity change below about -65%; inconclusive means about -30% to -65%; inactive means above about -30%; also: % is scaled to controls: 0 for no effect and ±100 for the full control effect
#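 Homogeneous bead-based format: GST-tagged E1A captured on glutathione donor beads, His-tagged CtBP on nickel acceptor beads; compounds precede bead addition by 2 h at 37 °C.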
# Six1-Eya2 inh – inhibitors of human Six1/Eya2 interaction | 360,000 compounds, 0.56% hits | AID 651725 | AlphaScreen GST-Six1/His-Eya2 binding, biochemical; stronger effect = lower value; control for the full effect not named in the record | activity change, % (concentration not given with the values); in the data active = activity change below about -65%; inconclusive = about -30% to -65%; inactive = above about -30%; also: % is scaled to controls: 0 for no effect and ±100 for the full control effect
#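 AlphaScreen luminescence read after one hour at 37 °C in darkness. Pin-transferred compounds met GST-Six1 and His-Eya2 protein (5X stock 250 nM/500 nM) plus glutathione donor and Ni-chelate acceptor beads (5X, 50 ug/mL).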
# PINK1 expr mod – modulators of PINK1 expression; PINK1 immunofluorescence, high-content cytometry, 24 h; Potency, µM (doses to about 76.6 µM), without a hit: at the highest dose activation (PINK1 increase), usual class: activators; 410,000 compounds, 0.2% hits; AID 624263; active = well fitted activation curve with a large enough effect; inconclusive = small, poorly fitted or top-dose-only effect; inactive = flat fitted curve, though single readings scatter; cell line not stated here;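 also: potency is read from the fitted curve at half-maximal effect; % of control where 0% means no effect; nearly all actives have a fitted effect of over 65% in size; a mitochondrial uncoupler was the plate control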
#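 Cells are seeded, rested 12 hours, then given compound at five concentrations or DMSO for 24 hours. After fixation, blocking and antibody staining, PINK1 amount and mitochondrial localization are scored; CCCP serves as control.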
# D2 ag – human D2 receptor agonism in beta-arrestin assay; DiscoveRx PathHunter D2 beta-arrestin, luminescence, 90 min; 100% = 57 uM dopamine signal; activation, % (test concentration not listed); 360,000 compounds, 0.084% hits; in the data active = activation above about 40%; inconclusive = about 15% to 40%; inactive = below about 15%; also: compound concentration not given in the record; the text of the record calls up to 30% inactive
#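 DiscoveRx PathHunter D2 beta-arrestin cells (2,100/well) attached overnight, then compound-stimulated 90 min at 37 C in HBSS/10 mM HEPES/0.1% Tween-20 buffer; beta-galactosidase complementation read by luminescence after 1 h at ambient temperature. Dopamine 57 uM final (EC100) as control.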
# TRPML1 agonist – activates the human TRPML1 channel; Q9GZU1; TRPML1-expressing cells, Ca2+ dye fluorescence, FDSS; host cell line not named in the record; reference of the full effect not given here; activation, % (concentration not given with the values); 410,000 compounds, 0.12% hits; in the data active = activation above about 50%; inconclusive = about 30% to 50%; inactive = below about 30%; also: 0% is about no effect; the text of the record puts the active cut at 80%
# Target sequence (Q9GZU1 whole entry, looked up): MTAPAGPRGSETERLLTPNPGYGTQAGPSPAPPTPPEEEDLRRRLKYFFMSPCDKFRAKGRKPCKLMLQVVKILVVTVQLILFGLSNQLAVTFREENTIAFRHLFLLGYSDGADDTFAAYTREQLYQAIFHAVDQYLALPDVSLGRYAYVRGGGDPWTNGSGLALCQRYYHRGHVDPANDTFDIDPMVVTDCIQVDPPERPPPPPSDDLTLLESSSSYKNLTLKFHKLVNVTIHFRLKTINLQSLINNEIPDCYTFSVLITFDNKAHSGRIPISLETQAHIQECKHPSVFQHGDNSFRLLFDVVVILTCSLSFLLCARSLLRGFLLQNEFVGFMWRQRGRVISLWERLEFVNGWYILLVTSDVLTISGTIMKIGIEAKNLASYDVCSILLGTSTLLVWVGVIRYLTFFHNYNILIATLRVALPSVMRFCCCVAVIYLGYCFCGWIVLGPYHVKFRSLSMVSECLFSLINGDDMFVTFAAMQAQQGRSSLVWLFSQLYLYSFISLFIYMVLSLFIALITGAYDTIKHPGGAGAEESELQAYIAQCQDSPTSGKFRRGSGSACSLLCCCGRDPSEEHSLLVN
#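 Kinetic FDSS Ca2+ read in Tet-induced TRPML1-DL cells (ABD Ca8 dye plus quencher, 45-90 min RT loading): baseline, then compound, then 110 s agonist window; EC80 agonist 54-4 at 4uM final added afterwards for a 110 s antagonist window.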
# Starred values were filed as active, the others as inactive; ? = inconclusive; . = not tested or not shown; & = joins results of further samples; [ ] = remark or other dose. An unsorted share of the library; 1.3% or so of the library scored in one or more.
# Results follow in this order: CtBP-E1A inh	PINK1 expr mod	TRPML1 agonist	Six1-Eya2 inh	D2 ag	D2 potentiator
Cc1nc2ccccc2c2oc(C(=O)N3CCC(N4CCCCC4)CC3)cc12
    -7.6	-1.1%	-0.3	-7.6	-5.0	-9.0
O=C1CCSc2ccc(Cl)cc2N1Cc1ccccc1
    7.6	0.3%	1.4	4.2	-0.3	7.3
COc1ccc(CCC(=O)NCc2ccccc2Cl)cc1OC
    2.6	3.2%	-0.5	2.0	-4.8	-9.2
COc1ccc(NC(=O)CSc2nc(C)cs2)c([N+](=O)[O-])c1
    -4.8	-0.6%	2.2	-15.3	1.1	-10.0
CC(C)[C@H](N)C(=O)OCCOCn1cnc2c(=O)[nH]c(N)nc21
    1.7&8.4	0.3%&2.5%	-0.3&0.2	0.0&0.8	-5.1&-2.9	-7.8&-0.1
O=C(COc1ccc(-c2ccccc2)cc1)N1CCN(C(=O)c2cccs2)CC1
    7.0	-0.1%	0.4	-74.1*	-2.5	-9.4
CCOCCCNC(=O)c1cn(CC)c2ccc(S(=O)(=O)N(C)C3CCCCC3)cc2c1=O
    1.0	-0.7%	-1.0	0.5	-0.7	0.5
COc1cccc(NC(=O)CN2C(=O)NC(C)(c3ccc(C)cc3)C2=O)c1 (stereo not drawn)
    0.9	2.6%	1.8	4.2	-2.8	-4.2
CCc1cc(C(c2ccccc2OC)N2CCOCC2)c(NC(=O)c2ccccc2)s1 (stereo not drawn)
    -11.1	1.0%	1.8	3.0	-4.1	-25.4
Cc1ccc(NC(=O)NCCCCc2ccccc2)cc1
    9.2	-0.8%	-0.2	0.1	-3.3	-25.2
COc1ccc(Cl)cc1NC(=O)COC(=O)c1ccc(Cl)nc1
    3.0	0.2%	-0.4	2.8	1.7	-0.6
COc1ccc(NC(C)C(=O)Nc2cccc(S(=O)(=O)N3CCOCC3)c2)cc1OC (stereo not drawn)
    -16.7	2.4%	1.5	-5.3	5.9	0.7
O=C(c1ccco1)N1N=C(c2cccs2)CC1c1ccc(F)cc1 (stereo not drawn)
    -0.9	.	1.7	-2.2	-2.0	-21.5
CN(C(=O)COC(=O)c1cc2ccccc2cc1O)c1c(N)n(Cc2ccccc2)c(=O)[nH]c1=O
    -14.0	-2.0%	0.6	3.8	1.4	1.3
CN1CCCN(c2ccc([N+](=O)[O-])cc2)CC1
    4.5	0.5%	0.7	-6.8	1.2	-11.6
COc1ncnc2c1ncn2CCCN1CCN(c2ccccn2)CC1
    -19.1	-0.4%	.	-1.9	3.7	.
CNC(=O)c1ccccc1NC(=O)C1CC(=O)N(c2ccc(OC)cc2)C1 (stereo not drawn)
    -4.3	0.9%	1.5	-6.9	-4.1	-0.8
COc1ccc(NC(=O)Cc2c(C(=O)O)n(C)c3ccccc23)cc1OC
    1.9	1.8%	1.5	-1.9	-5.2	-1.0
CCC(CC)c1nnc(NC(=O)/C=C/c2ccco2)s1
    6.7	?	1.7	0.9	0.6	-1.1
O=C(Cn1ccc2ccccc2c1=O)NCCC(=O)N1CCN(c2ccccc2)CC1
    -4.9	3.3%	-0.6	0.7	3.2	-1.8
O=C(Nc1ccc(Cc2ccncc2)cc1)C1CCC(N2C(=O)C3C4C=CC(C5CC45)C3C2=O)CC1 (stereo not drawn)
    -12.8	0.8%	1.5	-0.7	1.2	-0.2
CC(C)(C)OC(=O)N1CCC[C@H]1C(=O)Nc1ccc(Br)cc1
    .	5.1%	3.6	1.9	1.7	-11.5
CCCCn1c(CN2CCN(C(=O)OCC)CC2)nc2c1c(=O)n(C)c(=O)n2C
    2.6	14.6%[38.3 µM]	-1.0	0.0	-1.3	-2.3
Cc1cc(C)n(CCNC(=O)CC2C(=O)NCCN2Cc2ccccc2C(F)(F)F)n1 (stereo not drawn)
    5.4	-0.3%	1.8	-0.1	-0.8	-7.4
CCN1CCN(C(=S)Nc2ccccc2Cl)CC1
    2.0	-0.1%	1.9	-1.4	-1.6	-31.1
Oc1ccc(Cl)cc1CNc1ccc(Br)cn1
    3.9	7.5%	0.0	-3.0	1.9	-1.0
O=C(Nc1ccccc1F)c1ccco1
    10.4	.	-0.3	7.0	0.3	8.4
CC(=O)Nc1ccc(NC(=O)c2ccc(COc3ccccc3)cc2)cc1
    .	1.1%	-0.2	8.0	-5.1	-24.7
CCCNC(=S)N1CCC(NC(=O)C23CC4CC(CC(C4)C2)C3)CC1
    -4.0	7.6%	0.1	-1.4	-1.2	-4.1
CC(C)(C)C(=O)NNC(=O)c1cc2sccc2s1
    -2.0	1.6%	0.8	10.3	-5.8	-2.3
Cc1cccc(N=CC=C2OC(C)(C)C(C)(C)O2)c1
    -0.4	11.0%	0.4	6.8	0.1	11.8
C(=N\N1CCN(c2ccccn2)CC1)/C1=C(N2CCOCC2)C(=C/c2ccccc2)/CC1
    0.0	2.5%	-0.8	9.0	0.6	1.1
Cc1nccn1CC(O)COC1CCCCC1 (stereo not drawn)
    3.8	-1.6%	1.8	1.0	-4.3	-13.1
CCOC(=O)c1c(S(=O)(=O)N2CCN(Cc3ccccc3)CC2)c(C)n(C)c1C
    -1.8	0.2%	-0.4	-5.4	-0.2	-9.5
COc1ccc(C(C)=O)cc1COC(=O)CNC(=O)c1ccc(F)cc1
    -0.5	-0.6%	0.0	-1.8	-5.7	-16.8
CCC(=O)n1nc(-c2ccccc2)nc1NCc1ccccc1
    9.2	-4.1%[38.3 µM]	-0.1	1.9	-2.0	-10.6
CC1CN(C(=O)c2ccc(NS(=O)(=O)c3ccc(F)c(F)c3)cc2)CC(C)O1 (stereo not drawn)
    -10.3	-0.2%	1.6	9.4	0.9	12.1
COc1ccccc1C(=O)Nc1ccc(OCC(=O)N2CCCCC2C)cc1 (stereo not drawn)
    -10.1	0.6%	1.7	-0.6	-1.0	-0.5
CCOC(=O)c1sc(NC(=O)C(CC)Sc2nnc3c4ccccc4n(CC)c3n2)nc1C (stereo not drawn)
    8.1	0.0%	.	-0.4	0.1	4.3
CCC(C)N(CC(=O)NCc1ccc(OC)cc1)C(=O)c1csnn1 (stereo not drawn)
    8.3	-0.4%	-0.9	0.5	-2.3	0.7
COc1cc2c(=O)n(CCC(=O)NCC3CCCO3)c(=O)n(CC(=O)Nc3ccc(C)c(C)c3)c2cc1OC (stereo not drawn)
    -0.7	4.0%&-1.3%	-0.4&-0.3	-11.5	-5.2	-14.8
CCc1ccc2[nH]c(C(=O)Nc3ccc4c(c3)OCO4)cc2c1
    0.0	18.4%	1.0	4.1	-5.9	-33.6
O=C(Nc1nccs1)c1ccc(COc2c(F)c(F)cc(F)c2F)cc1
    .	4.7%	2.2	-10.1	2.6	-4.1
COc1cccc(CN2CCNC(=O)C2CC(=O)NCC(C)(C)N2CCOCC2)c1OC (stereo not drawn)
    -3.3	2.1%	0.0	8.8	-3.2	0.4
O=C1N(Cc2cccc(Cl)c2)C[C@@H]2C[C@@H](c3cccn3-c3cccnc3)N3CCC[C@@]123
    -18.3	2.1%	1.1	-8.0	1.0	-8.0
Cc1ccc2cc(C#N)c(N3CCCC3)nc2c1C
    49.2	2.1%	0.3	53.4	-4.3	-22.1
CCNC(=O)C1CCCN(C(=O)c2ccc(C)c(F)c2)CC1 (stereo not drawn)
    5.7	-0.6%	1.1	1.4	-3.8	-10.2
Cc1ccc(S(=O)(=O)NNC(=O)C2CCCCC2)cc1
    8.6	-2.2%	-0.8	-1.3	1.8	1.0
CC(Sc1ccccn1)C(=O)Nc1ccc(S(N)(=O)=O)cc1 (stereo not drawn)
    5.4	-1.4%[38.3 µM]	0.0	0.2	-2.1	3.6
Cc1cccc(N/C=C/c2onc(C)c2[N+](=O)[O-])c1
    -6.0	11.5%	-0.6	-2.0	-1.0	-0.5
Cc1ccc(CC2SC(=O)NC2=O)cc1Cl (stereo not drawn)
    9.7	-0.7%	0.8	-0.7	-0.6	7.9
Cc1ccc2nc3c(cc(C(=O)NCc4ccco4)c(=N)n3Cc3ccco3)c(=O)n2c1
    1.5	12.7%	3.5	0.7	3.2	-4.1
CCN(CCO)C(=S)Nc1cc(C(=O)OC)ccc1C(=O)OC
    25.0	3.8%	0.1	5.5	-2.0	0.1
S=C(NCC1CCCO1)NC12CC3CC(CC(C3)C1)C2 (stereo not drawn)
    1.1	2.9%	-0.3	-1.8	-0.2	-5.9
COc1ccc(-c2cnc(C(O)c3ccccc3)[nH]2)cc1 (stereo not drawn)
    -0.1	2.5%	-0.5	8.5	-5.0	-7.0
CC(=O)N1CCC(N(C(=O)Nc2ccc(C)c(C)c2)C2CCCC2)CC1
    -4.9	12.7%[38.3 µM]	0.2	3.3	-0.4	-1.4
O=C(CCCNC(=O)c1ccc(Cl)cc1)NCc1ccccc1F
    4.8	1.9%	-0.2	4.4	6.4	-6.4
Clc1ccc(CSc2nnc(-c3ccncc3)o2)c(Cl)c1
    -10.3	.	2.5	2.7	0.3	-0.2
CCOc1ccc(C(=O)NC(=S)Nc2ncccc2C)cc1[N+](=O)[O-]
    3.4	2.2%	0.4	3.3	-4.0	-5.2
Nc1nonc1-n1nnc(C(=O)N/N=C/c2ccc(OCc3cccc(Cl)c3)cc2)c1CN1CCCCC1
    8.9	3.6%	-0.6	5.8	-4.6	-17.5

# (next part)
# Results follow in this order: CtBP-E1A inh	PINK1 expr mod	TRPML1 agonist	Six1-Eya2 inh	D2 ag	D2 potentiator
O=C(CSc1ncccc1C(=O)O)NCCC1=CCCCC1
    3.8	?	0.0	3.4	-0.7	-5.1
C[C@@H](NC(=O)c1nc[nH]c1C(=O)N1CCN(C(=O)OC(C)(C)C)CC1)c1ccccc1
    0.1	-0.6%	0.3	0.5	1.5	-1.6
CC/C(=N\O)c1ccc(O)c(OC)c1
    0.4	4.3%[38.3 µM]	0.4	3.5	-2.5	-14.8
COc1ccc(-c2cc(C(=O)Nc3c(C)nn(Cc4ccc(Cl)cc4)c3C)no2)cc1
    5.0	18.1%[38.3 µM]	-0.2	2.1	8.0	-7.6
CCn1nnnc1SCC(=O)NC1Cc2ccccc2C1
    .	4.3%	-0.7	8.6	-3.4	-17.3
CC(C)N(C(C)C)S(=O)(=O)c1ccc(Cl)nc1
    -0.3	0.2%	-0.7	-2.5	-5.9	-4.4
CC(C)OCCCNC(=O)c1sc(=S)n(C)c1N
    -12.3	0.8%	-0.9	-13.5	-0.4	18.4
Oc1c(N=Nc2ccccn2)ccc2ccccc12
    -95.5*	-1.7%	2.5	-96.5*	1.7	-12.8
O=C(Nn1c(-c2ccccc2)nc2ccccc2c1=O)C1CCC1
    12.8	-5.7%[38.3 µM]	0.3	11.1	-2.4	-12.5
CCCOC1CCCN(Cc2nc(-c3cnccn3)no2)C1 (stereo not drawn)
    6.7	-0.6%	-0.6	1.2	3.5	-1.4
CSc1ncccc1C(=O)OCC(=O)NCc1cccs1
    -2.6	-4.4%	0.4	9.1	-0.8	-2.4
CCN(C(=O)COC(=O)CNC(=O)C12CC3CC(CC(C3)C1)C2)C1CCS(=O)(=O)C1 (stereo not drawn)
    .	-0.2%	0.2	7.9	4.3	-4.5
